Bioassay records from PubChem BioAssay.
GALR2 ag = GALR2 (human) receptor agonism | AID 803 | activation, %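 (tested at 5 µM)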 | actives 0.48% (n = 140,000) | GALR2-expressing cells, agonist activation read-out;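 active = above mean plus 3 SD of all compounds, about 5% in these data, not always enough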;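 also: 0% = vehicle buffer wells and 100% = reference agonist at full effect; tested in CHO reporter cells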
Target sequence (O43603 whole entry, looked up): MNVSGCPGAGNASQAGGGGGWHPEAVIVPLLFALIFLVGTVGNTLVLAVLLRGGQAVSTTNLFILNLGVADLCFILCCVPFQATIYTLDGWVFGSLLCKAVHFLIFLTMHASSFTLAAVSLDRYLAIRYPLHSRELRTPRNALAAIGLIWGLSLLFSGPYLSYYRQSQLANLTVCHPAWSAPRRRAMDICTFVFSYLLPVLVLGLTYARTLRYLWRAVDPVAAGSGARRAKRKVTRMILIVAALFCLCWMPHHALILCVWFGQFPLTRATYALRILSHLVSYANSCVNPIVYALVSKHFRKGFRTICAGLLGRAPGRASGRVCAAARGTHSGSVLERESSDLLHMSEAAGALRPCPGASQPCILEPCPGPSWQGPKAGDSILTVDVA
HSV augment = HSV replication enhancement | AID 1956 | maximum fold increase | actives 0.005% (n = 220,000) | HSV replication augmentation in cells, fold increase;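 active = peak rise of 1.5-fold or more in the series; tested in PC3 cells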;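 also: first round at 10 µM; read as green reporter fluorescence; hits show the peak of a series up to 25 µM; 1 = signal of infected wells without compound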
Insulin prom inh = TRM-6 insulin promoter activity inhibition | inhibition, % at 2 µM | actives 0.9% (n = 130,000) | TRM-6 cells (human fetal islet line), insulin promoter-eGFP reporter, imaging; reporter expression induced with tamoxifen;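 active = inhibition above the mean plus 3 SD, with well images judged a real hit on visual review, cut at about 60% in these data, passing the limit was not always enough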
RGS16-Gao HTS = RGS16-Galphao interaction regulator (human); O15492+P09471; AID 1441; bead-based flow cytometry RGS16-Galphao binding, fluorescence; actives lie on both sides; binding response (% of control), % at 10 µM; actives 0.38% (n = 220,000);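 active = below 25% or above 175%, edge rows of some plates excepted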;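 also: Galphao activated by GDP with aluminum fluoride before binding; 100% = wells without compound and 0% = beads without RGS; some results beyond the cut were filed as inactive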
Target sequence (O15492 whole entry, looked up): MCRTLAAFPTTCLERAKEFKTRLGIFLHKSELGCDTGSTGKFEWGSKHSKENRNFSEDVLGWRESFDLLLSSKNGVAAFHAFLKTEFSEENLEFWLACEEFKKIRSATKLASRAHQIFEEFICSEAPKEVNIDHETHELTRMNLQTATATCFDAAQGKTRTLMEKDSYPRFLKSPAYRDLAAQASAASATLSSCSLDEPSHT
Target sequence (P09471 whole entry, looked up): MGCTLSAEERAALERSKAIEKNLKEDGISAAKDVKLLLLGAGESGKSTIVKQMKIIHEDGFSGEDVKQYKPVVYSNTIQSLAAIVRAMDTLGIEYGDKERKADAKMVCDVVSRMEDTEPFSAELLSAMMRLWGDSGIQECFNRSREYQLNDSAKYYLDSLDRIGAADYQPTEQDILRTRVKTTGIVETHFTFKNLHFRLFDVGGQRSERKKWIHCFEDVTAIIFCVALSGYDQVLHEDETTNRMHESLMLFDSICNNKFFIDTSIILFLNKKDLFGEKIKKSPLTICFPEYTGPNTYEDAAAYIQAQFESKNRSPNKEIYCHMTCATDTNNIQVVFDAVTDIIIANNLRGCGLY
PKD1 inh = blocks activity of human protein kinase D1 | PKD1 kinase fluorescence polarization assay | inhibition, %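 (about 10 µM by stock and volumes)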 | Q15139 | actives 0.056% (n = 200,000);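 active = inhibition of 50% or more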;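 also: controls were vehicle for no effect and a reference inhibitor for full effect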
Insulin prom inh cell count = also measured in Insulin prom inh; calls as there; normalized cell count, %; measured here: cell count, toxicity; reference of the scale not given here;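 cells exposed to compound for 48 h; stained nuclei by imaging scaled within each plate; lower means fewer cells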
HSV augment primary fold = also measured in HSV augment; calls as there; fold increase; compound at 10 µM; measured here: primary screen fold increase 10 uM; tested in PC3 cells;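 GFP signal in the first replicate; 1 = infected wells without compound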
Numbers without * were called inactive; i = inactive; nt = not tested or not shown; [ ] = dose if it differs, or a comment.

Values run as follows: GALR2 ag	HSV augment	HSV augment primary fold	Insulin prom inh	Insulin prom inh cell count	RGS16-Gao HTS	PKD1 inh
#1 O=C(CC(O)(C(F)(F)F)C(F)(F)F)Nc1ccc(Cl)c(Cl)c1
→ -2.0	i	0.51	69	106	104	-2
#2 C/C=C/C=C/C(=O)N1CC[C@]23c4ccccc4N[C@H]4N(C)c5cccc6c5[C@]42CCN([C@H]6C2OC2(C)C)[C@H]13 (some centres undefined)
→ nt	i	0.78	nt	nt	97	nt
#3 O=C(CN(Cc1cccs1)C(=O)CNS(=O)(=O)c1ccc(F)cc1)NCc1ccco1
→ -0.9	i	0.92	-171	78	101	-6
#4 O=C(c1ccc([N+](=O)[O-])cc1)N1CCSC1c1ccccc1 (centres undefined)
→ -2.4	i	1.2	nt	nt	103	4
#5 O=C(/C(=C/O)N=Nc1ccccc1)c1ccncc1
→ -2.4	i	0.86	21	93	99	-1
#6 CCOC(=O)Cc1csc(NC(=O)/C=C/c2ccc(OC)cc2)n1
→ nt	i	1.1	58	53	102	3
#7 CCCCNC(=O)CSc1nc2ccsc2c(=O)n1C1CCN(C(=O)OCC)CC1
→ 0.1	i	1.2	0	159	97	-5
#8 CC(NC(=S)NCCc1ccccc1)C(c1cccs1)N1CCN(Cc2ccccc2)CC1 (centres undefined)
→ 0.0	i	0.84	-14	72	nt	-2
#9 O=C(O)c1nn(CC(=O)N(C2CCCCC2)C2CCCCC2)c(=O)c2ccccc12
→ nt	i	0.91	nt	nt	98	5
#10 Cc1ccc(-c2nc3ccccc3c(=O)n2NC(=S)N(C)C)cc1
→ -0.1	i	0.9	24	159	88	-5
#11 CCOC(=O)N1CCN(C(=O)c2ccc3nc(N4CCCCC4)sc3c2)CC1
→ -1.3	i	0.96	0	104	99	-2
#12 Oc1ccccc1-c1nc(/C=C/c2ccccc2)nn1-c1ccccc1
→ -1.6	i	1.1	23	99	197*[activator]	-9
#13 CCOc1cc2c3c(c1)C1(C(=O)N3C(C)(C)CC2C)C(C#N)=C(N)N2C(=C1C#N)Nc1ccccc12 (centres undefined)
→ 1.3	i	0.95	7	167	99	0
#14 Nc1nc(CN2CCN(c3ccccc3)CC2)nc(N2CCCc3ccccc32)n1
→ -2.4	i	0.9	nt	nt	103	-3
#15 CC(=O)c1c(C)[nH]c(C(=O)CSc2nc3ccccc3n2C)c1C
→ -1.1	i	0.9	-94	88	97	-10
#16 S=C(NNc1ccnc2cc(Cl)ccc12)Nc1ccccc1Cl
→ -0.5	i	1	27	156	98	6
#17 CCN(CC)CCCn1c(C)cc2c(c1=O)C(c1ccccc1)C(C#N)=C(N)O2 (centres undefined)
→ -3.3	i	1.1	-56	114	100	-1
#18 COc1cccc(NC(=O)CSc2nnc(-c3cccc(OC(C)C)c3)n2N)c1
→ -2.2	i	1	nt	nt	99	9
#19 Cc1ccccc1C(=O)Nc1nnc(CC(=O)N/N=C/c2cn(Cc3ccccc3)c3ccccc23)s1
→ nt	i	0.87	nt	nt	100	nt
#20 CCCCC(=O)Nc1ccc(C(=O)NCCc2ccccc2)cc1
→ -1.6	i	0.85	39	76	87	-13

(listing goes on)
Values run as follows: GALR2 ag	HSV augment	HSV augment primary fold	Insulin prom inh	Insulin prom inh cell count	RGS16-Gao HTS	PKD1 inh
#21 CN1CCN(c2ccccc2NS(=O)(=O)c2ccc3c(c2)CCN3C(=O)C2CCC2)CC1
→ 1.1	i	0.71	30	69	nt	-7
#22 Cc1ccc(CNC(=O)CN2C(=O)C3(OCCCO3)c3ccccc32)cc1
→ -0.1	i	0.84	nt	nt	99	-8
#23 O=C(CO/N=C/c1ccccc1)Nc1c(F)c(F)c(F)c(F)c1F
→ nt	i	0.9	18	154	117	-6
#24 O=C(c1cc2ccccc2oc1=O)N(Cc1ccccc1)CC1CCCO1 (centres undefined)
→ -1.2	i	0.92	46	115	108	0
#25 Cn1cc2cc(NC(N)=S)ccc2n1
→ nt	i	0.85	33	110	101	-1
#26 O=C(/C=C/c1ccccc1[N+](=O)[O-])N1CCN(C(=O)c2ccco2)CC1
→ nt	i	0.95	nt	nt	102	-4
#27 CN(CC(=O)Nc1ccc(F)c(F)c1)S(=O)(=O)c1cccc2nsnc12
→ -1.3	i	0.87	-57	112	102	-21
#28 CCCn1c(NCc2ccccc2NS(=O)(=O)c2ccc(C)cc2)nc2ccccc21
→ -1.5	i	0.68	-11	89	107	-8
#29 O=C(NCc1ccco1)c1ccc(N2CCCC2=O)cc1
→ -1.7	i	0.94	13	152	104	8
#30 O=C(CCl)c1ccc(Cc2ncc(C(F)(F)F)cc2Cl)s1
→ -0.4	i	0.98	34	101	103	0
#31 COc1ccc(-c2nc(SCC(=O)Nc3cc(C)on3)n[nH]2)cc1
→ 1.0	i	0.95	-57	62	103	-2
#32 O=C(COC(=O)c1c2c(nc3ccccc13)CCCCC2)NCc1ccc2c(c1)OCO2
→ 0.6	i	0.93	nt	nt	97	-13
#33 C=CCn1c(SCc2nc3ccccc3[nH]2)nnc1-c1ccc(OC)cc1
→ -2.0	i	0.68	59	75	98	-2
#34 CCOC(=O)N1CCN(C(=O)CN(C2CCCCC2)S(C)(=O)=O)CC1
→ 1.5	i	1	5	146	95	2
#35 CCN=C1SC(C(=O)Nc2cccc(Cl)c2)CC(=O)N1CC (centres undefined)
→ nt	i	0.99	20	61	106	-2
#36 CC(C)OCC(O)CS(=O)(=O)Cc1ccccc1 (centres undefined)
→ -2.3	i	1.3	-28	73	-90*	5
#37 O=C(CCn1nnc(-c2cccs2)n1)NCc1ccccc1Cl
→ 0.3	i	1.1	nt	nt	106	-4
#38 CC(=O)c1c(C)oc2ccc(O)c(CN3CCOCC3)c12
→ -1.8	i	1	18	77	100	5
#39 C=CCn1c(SCC(=O)/C(C#N)=C(\C)N)nc2sc(CC)cc2c1=O
→ 0.2	nt	nt	nt	nt	101	2
#40 COc1nc(-c2ccccc2)ccc1-c1noc(COc2ccccc2)n1
→ -1.4	i	0.86	39	88	97	-3

Quoted at random: 2 compounds from above
Values run as follows: GALR2 ag	HSV augment	HSV augment primary fold	Insulin prom inh	Insulin prom inh cell count	RGS16-Gao HTS	PKD1 inh
#21 CN1CCN(c2ccccc2NS(=O)(=O)c2ccc3c(c2)CCN3C(=O)C2CCC2)CC1
→ 1.1	i	0.71	30	69	nt	-7
#13 CCOc1cc2c3c(c1)C1(C(=O)N3C(C)(C)CC2C)C(C#N)=C(N)N2C(=C1C#N)Nc1ccccc12 (centres undefined)
→ 1.3	i	0.95	7	167	99	0

The results go on.
Assay codes – A = GALR2 ag; B = HSV augment; C = HSV augment primary fold; D = Insulin prom inh; E = Insulin prom inh cell count; F = RGS16-Gao HTS; G = PKD1 inh
#41 CCOC(=O)c1c(NC(=O)C2=C(C)NC(=S)NC2c2ccc(C)cc2)sc(C)c1C (centres undefined)
  A: 0.9	B: i	C: 0.94	D: nt	E: nt	F: 118	G: -1

#42 COCCn1c(Cc2cccn2C)nnc1SCC(=O)NCc1ccc2c(c1)OCO2
  A: nt	B: i	C: 1	D: nt	E: nt	F: 106	G: -3

#43 O=C(NCC1CCCO1)C1CCC(=O)N1Cc1ccccc1Cl (centres undefined)
  A: -0.9	B: i	C: 0.95	D: nt	E: nt	F: 79	G: -14

#44 CC(=O)NCC(=O)OCC(=O)c1ccc(C)c(C)c1
  A: -1.1	B: i	C: 1.2	D: 0	E: 89	F: 100	G: -1

#45 CCO/C=C1/C(=O)N(CC)c2ccccc21
  A: 1.6	B: nt	C: nt	D: 29	E: 104	F: 99	G: -12

#46 CN(C)S(=O)(=O)c1ccc(Cl)c(NC(=O)COC(=O)/C=C/c2cnc3ccccc3n2)c1
  A: nt	B: i	C: 1.2	D: nt	E: nt	F: 101	G: nt

#47 COc1cc(CC(NC(C)=O)C(=O)NC2CCN(c3nc(C)cc(C)c3C#N)CC2)cc(OC)c1 (centres undefined)
  A: -1.4	B: nt	C: nt	D: nt	E: nt	F: 122	G: -9

#48 CC1CN(C(=O)C(C)N2CCN(c3cccc(Cl)c3)CC2)CC(C)O1 (centres undefined)
  A: nt	B: i	C: 0.94	D: nt	E: nt	F: 104	G: 0

#49 COC(=O)c1sccc1NC(=S)N1CCN(c2cc(C)ccc2C)CC1
  A: -0.8	B: i	C: 0.9	D: -45	E: 173	F: 102	G: -6

#50 CC(C)N(c1ccccc1)c1ccc(NC(=O)C2CCCO2)cc1 (centres undefined)
  A: -1.2	B: i	C: 0.82	D: -61	E: 121	F: 95	G: -7

New compounds follow.
Assay codes – A = GALR2 ag; B = HSV augment; C = HSV augment primary fold; D = Insulin prom inh; E = Insulin prom inh cell count; F = RGS16-Gao HTS; G = PKD1 inh
#51 COc1ccc(OC)c(S(=O)(=O)N2CCC(C(=O)Nc3ccc(C)c(C)c3)CC2)c1
  A: -1.4	B: i	C: 0.98	D: 21	E: 124	F: 102	G: -4

#52 Cc1ccccc1/C=C/c1cc[n+](C)cc1
  A: nt	B: i	C: 1	D: 43	E: 134	F: 103	G: -4

#53 Cc1cc(NC(=O)COC(=O)c2cccc(O)c2)no1
  A: nt	B: i	C: 0.82	D: nt	E: nt	F: 112	G: -2

#54 COc1cccc(OC)c1CN(C)C(=O)c1cnccc1C(F)(F)F
  A: nt	B: i	C: 1	D: nt	E: nt	F: 109	G: nt

#55 CCOc1ccc(NC(=S)NC(=O)/C=C/c2ccc(OC)c(OC)c2)c([N+](=O)[O-])c1
  A: -0.5	B: i	C: 0.69	D: nt	E: nt	F: 100	G: 4

#56 CCOC(=O)N1CCN(CC(O)COC(CC)c2ccccc2)CC1 (centres undefined)
  A: -2.4	B: i	C: 0.85	D: nt	E: nt	F: 93	G: -4

#57 Cc1ccc(S(=O)(=O)Nc2cc(C(=O)NCCN3CCCC3)ccc2N2CCCCC2)cc1
  A: 0.1	B: i	C: 0.9	D: 31	E: 143	F: 83	G: 14

#58 Cc1cc(N/C(=N/S(=O)(=O)c2cc(F)ccc2F)c2ccccc2)n(-c2ccccc2)n1
  A: nt	B: i	C: 0.86	D: -73	E: 55	F: 73	G: 0

#59 COc1ccccc1N1CSC2=C(C#N)C(c3ccc(SC)cc3)CC(=O)N2C1 (centres undefined)
  A: -0.6	B: i	C: 1.1	D: nt	E: nt	F: 66	G: 2

#60 S=C(N/N=C/c1ccccc1Cl)Nc1cccc(Cl)c1Cl
  A: nt	B: i	C: 0.82	D: nt	E: nt	F: 100	G: nt

#61 C=CCNC(=O)c1ccc2c(c1)nnn2C
  A: -3.2	B: i	C: 0.93	D: nt	E: nt	F: 92	G: -1

#62 O=C1c2cccc3c(N4CCCCC4)ccc(c23)C(=O)N1c1ccccn1
  A: -1.2	B: nt	C: nt	D: nt	E: nt	F: 105	G: -2

Full records, looked up by structure. Order of screens: GALR2 ag	HSV augment	HSV augment primary fold	Insulin prom inh	Insulin prom inh cell count	RGS16-Gao HTS	PKD1 inh
COc1cccc(OC)c1CN(C)C(=O)c1cnccc1C(F)(F)F as listed: nt	i	1	nt	nt	109	nt
COc1ccccc1N1CSC2=C(C#N)C(c3ccc(SC)cc3)CC(=O)N2C1 (centres undefined) as listed: -0.6	i	1.1	nt	nt	66	2
CCOC(=O)N1CCN(CC(O)COC(CC)c2ccccc2)CC1 (centres undefined) as listed: -2.4	i	0.85	nt	nt	93	-4
C=CCNC(=O)c1ccc2c(c1)nnn2C as listed: -3.2	i	0.93	nt	nt	92	-1
O=C1c2cccc3c(N4CCCCC4)ccc(c23)C(=O)N1c1ccccn1 as listed: -1.2	nt	nt	nt	nt	105	-2
